StopGo reporter: High Throughput Screening for Foot and Mouth Disease Virus Antivirals; Potency, µM (doses to about 57.9 µM), without a hit: at the highest dose signal change, negative = less light; hit rate 1.2% among 410,000; human cells with a luciferase reporter of 2A StopGo recoding; control for the full effect not named in the record; active = well fitted falling curve with a large enough effect; inconclusive = small, poorly fitted or top-dose-only effect; inactive = no such curve, though single readings can be large or run the other way; tested in HEK293T cells; also: % is scaled to controls: 0 for no effect and ±100 for the full control effect; nearly all actives have a fitted effect of over 45% in size; luciferase light after 4 h
Lassa entry inh: qHTS for Inhibitors of binding or entry into cells for Lassa Virus. Lassa virus pseudotype entry inhibition, cell reporter; control for the full effect not named in the record. Potency, µM (series often up to 37.9 µM), without a hit: at the top dose activity change, negative = inhibition, hits mostly inhibitors. hit rate 1.2% among 300,000. AID 540256, 2011; active means well fitted inhibition curve with a large enough effect; inconclusive means small, poorly fitted or top-dose-only effect, or effect the other way; inactive means flat fitted curve, though single readings scatter; tested in HEK293 cells; also: % is scaled to controls: 0 for no effect and ±100 for the full control effect; nearly all actives have a fitted effect of over 50% in size; luciferase read-out
Cruzain Triton: qHTS Assay for Promiscuous and Specific Inhibitors of Cruzain (with detergent) | Cruzipain (Trypanosoma cruzi), P25779 | purified cruzain, Z-FR-AMC fluorescence, 0.01% Triton | Potency, µM, for inactives: max response, negative = inhibition, most hits filed as inhibitors | hit rate 0.43% among 200,000 | AID 1478, 2009; active = well fitted curve in the direction sought with a large enough effect; inconclusive = small, poorly fitted or top-dose-only effect, or another doubt; inactive = no such curve, though single readings can be large; an effect the other way counts as inactive or inconclusive;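 also: plate controls were neutral wells for no effect and buffer without enzyme for full effect; nearly all actives have a fitted effect of over 40% in size; top concentration of the series not given in the record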
Target sequence (P25779 123-467 limits assumed): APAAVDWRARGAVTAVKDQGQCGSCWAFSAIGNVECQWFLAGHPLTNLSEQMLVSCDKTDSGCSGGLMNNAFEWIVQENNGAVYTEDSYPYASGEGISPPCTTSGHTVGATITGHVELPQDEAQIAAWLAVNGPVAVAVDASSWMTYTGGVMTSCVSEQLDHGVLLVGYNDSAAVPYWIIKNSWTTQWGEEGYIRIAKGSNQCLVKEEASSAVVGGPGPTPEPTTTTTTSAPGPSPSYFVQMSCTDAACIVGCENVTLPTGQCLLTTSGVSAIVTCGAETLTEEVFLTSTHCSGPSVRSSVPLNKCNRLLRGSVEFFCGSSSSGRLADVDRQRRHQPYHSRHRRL
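In this qHTS format, compounds are incubated with 1.5 nM cruzain for 15 min at room temperature before 2 uM Z-FR-AMC is added. Release of AMC is followed at 360/450 nm, and progress is taken as the 60 s fluorescence difference.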
MARV entry inh: qHTS for inhibitors of binding or entry into cells for Marburg Virus | hit rate 1.8% among 300,000 | Marburg virus pseudotyped entry inhibition, cell reporter; control for the full effect not named in the record; about a third of the inactives were read at about 46 µM | Potency, µM (series often up to 37.8 µM), without a hit: at the top dose activity change, negative = inhibition, usual class: inhibitors; active = well fitted inhibition curve with a large enough effect; inconclusive = small, poorly fitted or top-dose-only effect, or effect the other way; inactive = flat fitted curve, though single readings scatter; tested in HEK293 cells; about a fifth of its hits are not listed in these tables; also: % is scaled to controls: 0 for no effect and ±100 for the full control effect; luciferase read-out
NS1 inh: qHTS Assay for Inhibitors of Influenza NS1 Protein Function | S. cerevisiae slowed by influenza A NS1, growth recovery by OD600 | Potency, µM (titrated, usually from 46.1 µM), inactives show at the top dose activity, positive = more growth | hit rate 0.4% among 270,000 | AID 2326, 2010; also: actives are rising curves; nearly all actives have a fitted effect of over 50% in size
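Read-out: OD600 growth recovery of NS1-expressing budding yeast. Cells grown overnight at 30C in -URA glucose medium, washed, resuspended and diluted 1:100 in 2% galactose assay medium, pH 6.0. Same strain lacking NS1 served as positive control.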
SARS PLpro yeast: qHTS of Yeast-based Assay for SARS-CoV PLP | S. cerevisiae expressing SARS-CoV PLpro, growth rescue; control for the full effect not named in the record | AID 485353, 2010 | Potency, µM (highest dose often 32.9 µM), without a hit: at the highest dose activity, positive = growth rescue | hit rate 0.19% among 330,000; also: 0% is about no effect; nearly all actives have a fitted effect of over 55% in size; growth read by luminescence after 48 h
RE007 growth inh: qHTS Assay for Inhibitors of the HIV-1 protein Vpr. hit rate 0.21% among 360,000. Potency, µM (doses to about 92.2 µM), for the others: at the top dose activity change, negative = less growth. S. pombe RE007 Vpr strain, BacTiter-Glo ATP luminescence, 24 h; control for the full effect not named in the record. AID 651644, 2012; active = well fitted falling curve with a large enough effect; inconclusive = small, poorly fitted or top-dose-only effect; inactive = no such curve, though single readings can be large or run the other way;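 also: % is scaled to controls: 0 for no effect and ±100 for the full control effect; nearly all actives have a fitted effect of over 50% in size; the assay follows cell death caused by Vpr and the record does not say whether a fall means rescue or toxicity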
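Fission yeast RE007 carrying one integrated HIV-1 vpr copy, seeded at OD 0.01 in PMG+AL medium with 23 nL pinned compound. Grown 24 h at 30 degrees; viability read by BacTiter-Glo luminescence after 5 min.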
Cruzain inh noDet: qHTS Assay for Promiscuous and Specific Inhibitors of Cruzain (without detergent) | hit rate 2.3% among 200,000 | AID 1476, 2009 | purified cruzain, Z-FR-AMC fluorescence, no detergent | Potency, µM, for the others: max response, negative = inhibition, actives largely listed as inhibitors; active = well fitted curve in the direction sought with a large enough effect; inconclusive = small, poorly fitted or top-dose-only effect, or another doubt; inactive = no such curve, though single readings can be large; an effect the other way counts as inactive or inconclusive;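 also: plate controls were enzyme without inhibitor for no effect and buffer without enzyme for full effect; nearly all actives have a fitted effect of over 40% in size; top concentration of the series not given in the record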
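Detergent-free condition (0.00005% Triton X-100) in acetate buffer pH 5.5 with DTT. 1.5 nM enzyme and compound were pre-mixed 15 min, then 2 uM Z-FR-AMC substrate added; reaction progress from fluorescence change between first and third reads (60 s).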
* hit, by the source's call; u = inconclusive; x = not tested or not shown; & = joins results of further samples; [ ] = remark or other dose. Unless noted, calls follow the shape of the dose curve; as a rule, active means well fitted rising curve with a large enough effect; inconclusive means small, poorly fitted or top-dose-only effect; inactive means no such curve, though single readings can be large or run the other way. Potency is read from the fitted curve at half-maximal effect. Outcome played no part in choosing rows. About 4.7% of those tested had a hit in this group.

SMILES	StopGo reporter	Lassa entry inh	Cruzain Triton	MARV entry inh	NS1 inh	SARS PLpro yeast	RE007 growth inh	Cruzain inh noDet
CC1CN(C(=O)c2cc(S(=O)(=O)N3CCN(c4ccccc4)CC3)ccc2Cl)CC(C)O1 (stereo unspecified)	u	-25%	x	u	x	-5%	2%	x
COc1cccc(CNS(=O)(=O)c2ccc(-c3cc(C(F)(F)F)on3)s2)c1	-13%	29%[46.1 µM]	-8.5%	x	x	x	x	-5%
O=C(O)C1=C[C@@H](C2CCCCC2)C[C@@H](OCc2ccc(CO)cc2)O1	-6%	x	x	x	6%	-1%	9%	x
COc1c2ccoc2cc2oc(=O)ccc12	-9%&2%	x	-1.5%&-5.6%&4.5%	x	x	0%	-6%	-1%&-7%&-2%
Cc1cccc2cc(COC(=O)c3ccco3)c(=O)[nH]c12	-3%	-14%	0.8%	13%	-17%	-2%	5%	0%
CCN(CC)S(=O)(=O)c1cc(NS(=O)(=O)c2cccc(Cl)c2)ccc1C	-3%	-16%	-8.9%	u	-21%	-12%	3%	-1%
COc1ccc(S(=O)(=O)NCC(c2ccc(N(C)C)cc2)N2CCCC2)cc1 (stereo unspecified)	-22%	0%[46.1 µM]	0.0%	x	x	x	x	-4%
CNC(=O)c1sc(=S)n(-c2ccc(OC)cc2)c1N	12%	1%[46.1 µM]	x	u	u	0%	28%	x
N#Cc1ccc(NC(=O)c2cccs2)nc1	22%	9%[46.1 µM]	x	u	-4%	-3%	17%	x
CN(C)c1ccc(C2CNC(c3ccc(Cl)c([N+](=O)[O-])c3)c3[nH]c4ccccc4c32)cc1 (stereo unspecified)	-5%	x	x	x	-52%	-1%	27%	x
Cc1ccc(OCC(=O)NNC(=O)CCC(=O)NCc2ccccc2)cc1	-13%	10%	-5.5%	u	-2%	-3%	-13%	2%
COc1ccc(Cn2nnnc2C(c2ccccc2Cl)N2CCN(C)CC2)cc1 (stereo unspecified)	-20%	7%	-3.0%	0%&0%	-3%	6%	-2%	-1%
Cc1nc(NC(=O)/C=C/c2ccccc2)sc1C(=O)N1CCCCC1	21%	x	x	x	-6%	-1%	11%	x
COc1cc(C(O)c2nc3ccccc3s2)cc(OC)c1OC (stereo unspecified)	u	x	x	x	-8%	1%	3%	x
COc1ccc(Cl)cc1S(=O)(=O)N1CCN(C(=O)c2ccco2)CC1	11%	-15%	3.1%	16%	-23%	6%	8%	4%
COCc1cc(Sc2ccc(Br)cc2)nc(-c2ccccc2)n1	u	1%	-2.2%	6%	-2%	-5%	u	-11%
Nc1cc(C(=O)OCC(=O)NCc2ccco2)ccc1Cl	-20%	0%	-3.3%	u	-6%	7%	-3%	7%
COc1ccc(OCC(=O)N/N=C/c2ccncc2)cc1	7%	-23%[46.1 µM]	x	23%[46.1 µM]	x	-2%	3%	x
CCCCNc1nc2c(c(=O)n(Cc3ccc(Cl)cc3)c(=O)n2C)n1C	u	3%[46.1 µM]	-7.4%	u	x	x	x	2%
COCCCNC(=O)CSc1nc(-c2cccc(F)c2)[nH]c1-c1ccccc1	-14%	0%[46.1 µM]	-9.2%	-1%[46.1 µM]	x	x	x	-7%
O=C(O)C1SCCN1S(=O)(=O)c1ccc2ccccc2c1 (stereo unspecified)	-8%	18%	-0.8%	16%	7%	-18%	2%	10%
CC1=C(C(=O)NC2CC(C)(C)Cc3c2cnn3-c2ccc(C)cc2)OCCO1 (stereo unspecified)	-14%	u	x	-19%	21%	-4%	-5%	x
CCCOc1ccc(N2CC(C(=O)Nc3ccccc3C(=O)NCc3ccco3)CC2=O)cc1 (stereo unspecified)	-18%	0%	-4.5%	-28%	-9%	-7%	0%	13%
COc1ccc(OC)c2sc(N3CCN(C(=O)c4ccc5c(c4)CCCC5)CC3)nc12	-6%	-12%[46.1 µM]	-21%	x	x	x	x	-27%
Cn1c(=O)n(C)c2cc([N+](=O)[O-])c(N3CCN(CCO)CC3)cc21	-8%	4%[46.1 µM]	x	-21%[46.1 µM]	-1%	0%	9%	x
Cc1cccc(NC(=S)NC2CCCCCC2)c1C	8%	1%	-7.3%	-8%	-29%	-13%	-4%	-10%
COc1ccc(CCN2C(=O)C3C4CC(C5C(C(N)=O)=NOC45)C3C2=O)cc1OC (stereo unspecified)	14%	-2%	3.4%	u	-4%	2%	-4%	2%
C=C(C)C(=O)Nc1nnc(-c2cccs2)s1	7%	16%	-5.8%	2%	-12%	-16%	-5%	-5%
COc1ccc(-c2cc(C)no2)cc1S(=O)(=O)NCc1cccs1	12%	-19%[46.1 µM]	-0.1%	x	x	x	x	-4%
COc1ccc(/C=C/C(=O)N2CCNC(=O)C2)c(OC)c1	45%[activator]	x	x	x	6%	2%	-2%	x
C=CCN(C(=O)c1csnn1)C(C(=O)NC1CCCC1)c1cccs1 (stereo unspecified)	-24%	0%	x	-8%[46.1 µM]	3%	-1%	13%	x
O=C(CC1C(=O)NCCN1C(=O)Nc1ccc(F)cc1F)Nc1ccc(F)cc1 (stereo unspecified)	0%	-9%	x	7%[14.2 µM]	8%	1%	-7%	x
Cc1ccc(S(=O)(=O)Nc2cc(C)c(O)c(S(=O)(=O)c3ccc(C)cc3)c2)cc1	60%[activator]	19%	-5.1%	0%	u	-8%	-15%	0%
Cc1ccc(S(=O)(=O)NC(C)C(=O)Nc2ccc3c(c2)OCO3)cc1 (stereo unspecified)	-2%	-2%[46.1 µM]	x	u	u	1%	9%	x
COc1cccc(-n2c(O)c(C=NCCN3CCOCC3)c(=O)[nH]c2=O)c1	-12%	-2%	2.6%	5%	3%	-3%	-9%	-2%
Cc1ccc(N=C2C(=O)Nc3c(C)cccc32)cc1	7%	x	x	x	-18%	13%	2%	x
COc1cccc(N2C(=O)CC(=O)NC2=O)c1	6%	23%	0.8%	18%	19%	-1%	-13%	-13%
COc1ccc2c(C)c(CCC(=O)NC3CC3)c(=O)oc2c1	-3%	x	x	x	-4%	-7%	14%	x
CCOC(=O)c1c(S(=O)(=O)N2CCN(c3ccc(F)cc3)CC2)c(C)n(C)c1C	14%	x	x	x	1%	6%	-2%	x
Cc1c(Cl)cccc1N1C(=O)CC(NNC(=O)c2cccs2)C1=O (stereo unspecified)	12%	-1%	x	u	x	0%	-11%	x
CC(=O)NCc1cc(-c2ccc(Cl)cc2)no1	37%[activator]	0%[46.1 µM]	x	13%[46.1 µM]	-3%	0%	-12%	x
COc1cc(NC(=O)C2=C(N3CCOCC3)/C(=C\c3ccc(Cl)cc3Cl)CC2)cc(OC)c1OC	14µM*	u	-21%	u	18%	-13%	13%	u
O=c1[nH]cc(COCC(F)CCl)c(=O)[nH]1 (stereo unspecified)	-10%	x	x	x	0%	2%	-5%	x
O=C1COc2ccc(S(=O)(=O)NCCc3ccc(Cl)cc3)cc2N1	44%[activator]	0%[46.1 µM]	x	7%[46.1 µM]	-10%	-1%	8%	x
CCC(C)CCN1C(Nc2ccccc2)=NC[C@@H]1CC(C)C (stereo partly specified)	-16%	x	x	x	-11%	-9%	-3%	x
COc1cccc(C2=CC(c3ccc(C)cc3)n3ncnc3N2)c1 (stereo unspecified)	x	x	-9.1%	-3%	-16%	-2%	x	7%
COc1ccc(-c2nnn(CC(=O)N(Cc3ccco3)C(C(=O)NCC3CCCO3)c3ccco3)n2)cc1 (stereo unspecified)	21%	9%	-7.0%	u	-2%	2%	5%	u
COCCNC(=O)CN(Cc1ccco1)C(=O)CCC(=O)Nc1nccs1	4%	4%	x	0%[46.1 µM]	-2%	1%	2%	x
COc1ccc(CNC(=O)CN(Cc2ccccc2)C(=O)c2csnn2)cc1	8%	-2%	1.8%	7%	-2%	2%	14%	9%
CCc1c(C(=O)NC(C)C2CCCO2)csc1C (stereo unspecified)	-6%	-18%[46.1 µM]	x	7%[46.1 µM]	16%	4%	7%	x
CCOC(=O)Cn1c(=O)oc2cc(S(=O)(=O)N3CCN(c4cccc(Cl)c4)CC3)ccc21	-13%	0%[46.1 µM]	0.3%	13%[46.1 µM]	x	x	x	5%
COc1ccccc1CC(=O)Nc1ccc2nc(C)sc2c1	43%[activator]	1%	-3.1%	23%	-5%	0%	1%	8%
Cc1ccc(-c2nnn3c2nc(NCCc2ccccc2)c2ccccc23)cc1	7%	10%[46.1 µM]	1.8%	u	x	x	x	2%
COc1cc2c(cc1OC)CC(=O)N(C)CC2	-14%	-4%	-1.5%	0%	-15%	11%	-15%	6%
CCCc1cn(S(=O)(=O)c2ccc(OC)cc2OC)nc1N	42%[activator]	20%[14.3 µM]	0.1%	8%	6%	-4%	3%	u
CCN(CC)CCCNC(=O)Cn1cnc2sc(C)c(S(=O)(=O)N3CCC(C)CC3)c2c1=O	-8%	18%[46.1 µM]	x	u	-15%	5%	5%	x
COc1cccc(NC(=O)c2cc(-c3ccncc3)nc3c(C)cc(C)cc23)c1	-24%	u	x	u	14%	-1%	-1%	x
CCOc1ccc(CNc2ccc(N3CCN(Cc4ccccc4)CC3)cc2)cc1	-17%	u	x	-30%[46.1 µM]	-4%	-13%	-21%	x
COCC(C)NC(=O)CSc1ncnc2sc(-c3ccccc3)cc12 (stereo unspecified)	-8%	-1%	x	-29%	-3%	-3%	3%	x
O=S(=O)(Nc1ccc(Br)cc1)c1ccc2nc(-c3ccccc3)[nH]c2c1	28%	-24%[46.1 µM]	-11%	u	x	x	x	-2%
COc1ccc(-c2cc(C(F)(F)F)nc(SCCC(=O)Nc3ccccc3F)n2)cc1	-16%	0%[46.1 µM]	-2.3%	5%[46.1 µM]	x	x	x	-6%
COCCNC(=O)CN1CCN(C(c2ccccc2)c2ccccc2)CC1	x	-4%	-1.7%	3%&-7%	0%	7%	11%	1%
CN(C(=S)NC(=O)c1ccccc1Br)C1CCCCC1	4%	10%	-4.2%	-8%	-10%	3%	-5%	-5%

Bioassay records as filed in PubChem.
